Assay outcomes as filed in PubChem.
Rce1 inh: yeast Rce1p protease inhibitors, primary screen, biochemical, fluorescence, cell-free homogeneous. CAAX prenyl protease 2 (Saccharomyces cerevisiae (strain ATCC 204508 / S288c)), Q03530. yeast membranes, quenched prenylated peptide cleavage fluorescence. calls only. hit rate 0.27% among 290,000;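 active = fall in fluorescence gain of 50% or more versus controls, with final raw signal at or below 3038400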;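 also: plate controls were neutral control wells for no effect and wells lacking membranes for full effect; tested at 10 µM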
CSC inhib: cancer stem cell viability inhibitors, primary screen, luminescence | cancer stem cell-like cells viability | inhibition, % at 7.5 µM | hit rate 1.1% among 300,000 | AID 2717, 2010;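 active = mean at 75% or more and at least half the replicates too; tested in HMLE shEcad cells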;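 also: 0% = median of negative and 100% = median of positive control wells; the first replicate is given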
PABP polyA inh: PABP poly(A) RNA binding inhibitors, primary screen, biochemical, fluorescence polarization, uHTS; Polyadenylate-binding protein 1 (Homo sapiens), P11940; inhibition, % at 35 µM; hit rate 1% among 290,000; AID 2014, 2009;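 active = 50% or more with normal probe brightness, or confirmed in later tests; about a fifth of its hits are not listed in these tables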;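 also: calls also rest on retests at 20 µM and on dose response follow-up; controls were probe without protein and protein plus probe with vehicle; some compounds called inactive have numbers as strong as hits; many hits fall short of the cut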
Target sequence (P11940 whole entry, looked up): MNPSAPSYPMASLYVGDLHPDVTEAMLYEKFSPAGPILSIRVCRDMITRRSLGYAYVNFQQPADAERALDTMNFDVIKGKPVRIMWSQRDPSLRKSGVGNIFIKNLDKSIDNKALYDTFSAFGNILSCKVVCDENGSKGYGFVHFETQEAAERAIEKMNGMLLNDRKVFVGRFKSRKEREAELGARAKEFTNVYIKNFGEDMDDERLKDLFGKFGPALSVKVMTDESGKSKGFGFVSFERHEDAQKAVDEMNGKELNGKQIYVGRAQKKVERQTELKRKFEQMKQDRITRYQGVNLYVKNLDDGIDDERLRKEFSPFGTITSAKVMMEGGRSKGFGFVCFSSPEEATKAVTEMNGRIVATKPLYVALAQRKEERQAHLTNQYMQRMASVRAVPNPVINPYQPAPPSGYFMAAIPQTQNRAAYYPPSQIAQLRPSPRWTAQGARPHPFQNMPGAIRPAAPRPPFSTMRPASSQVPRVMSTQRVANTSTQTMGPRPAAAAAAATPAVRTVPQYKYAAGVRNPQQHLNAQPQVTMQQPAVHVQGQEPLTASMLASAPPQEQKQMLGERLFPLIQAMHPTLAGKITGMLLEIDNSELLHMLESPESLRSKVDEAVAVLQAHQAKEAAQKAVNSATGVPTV
MT1-MMP act inh: blockers of MT1-MMP proenzyme processing, primary screen, HT1080 RFP-PRO-GFP cells, GFP/RFP fluorescence. Matrix metalloproteinase-14 (Homo sapiens), P50281. GFP/RFP ratio fluorescence, overnight; percent of plate control window, DMSO zero. AID 651647, 2012. GFP/RFP ratio change, % at 20 µM. hit rate 0.061% among 360,000;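 active = GFP/RFP ratio change of at least 30% with cell ATP level not reduced by more than half and red fluorescence within 50% of control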; also: strong numbers were not always called active
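Assay system: HT1080 cells carrying an RFP-PRO-GFP reporter | Dosing: Single dose of 20 µM compound, 1% DMSO final | Incubation: Cells overnight before dosing, compound overnight, 37 °C, 5% CO2 | Evaluation: GFP/RFP fluorescence ratio | Control set: DMSO and RFP-L50D-GFP cell wells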
eIF4H inh: human eIF4H binding inhibitors, primary screen, translation initiation inhibitor project, biochemical, uHTS, fluorescence polarization; hit rate 0.94% among 290,000; inhibition, % at 35 µM; eIF4H fluorescence polarization binding assay; Eukaryotic translation initiation factor 4H (Homo sapiens), Q15056;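 active = 50% or more with normal probe brightness, or confirmed in later tests; about a fifth of its hits are not listed in these tables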;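 also: calls also rest on retests at 20 µM and on dose response follow-up; 0% = protein and probe with vehicle and 100% = probe without protein; strong numbers were not always called active; many hits fall short of the cut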
HIV Env fusion: inhibitors of HIV-1 Env-driven cell-cell fusion, primary screen, HeLa-JRFL effector, CEM21 target cells, luciferase. inhibition, % at 12.3 µM. hit rate 1.1% among 360,000. AID 651610, 2012;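 active = mean replicate inhibition score of at least 50 and every replicate individually at or above 50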;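 also: 0% = plate neutral controls and 100% = maraviroc near 300 nM; one replicate is shown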
Yeast UUG start: modulators of yeast start codon fidelity, primary screen, whole organism, S. cerevisiae, single point, plate reader | activity score, % at 18.7 µM | hit rate 0.13% among 350,000 | S. cerevisiae UUG-firefly luciferase reporter, luminescence/redox ratio | AID 602363, 2012;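 active = replicate mean at a twofold rise or more, about +100% in these data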;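 also: firefly luciferase made from a UUG start codon reports start codon fidelity; reporter light over untreated wells divided by growth signal over untreated wells; some hits fall short of that in this replicate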
MT1-MMP act inh RFP: further read-out of MT1-MMP act inh, marked with its call; RFP signal change, %; measured here: RFP expression control read;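 0 = vehicle wells; hits needed this value within 50% of zero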
* marks the source's active call; other numbers are inactive results. This is a subset. The share of hits here may be higher or lower than overall.

Preview:
Results for CCOc1ccc(OCCCC(=O)ON=C(N)c2ccccc2Cl)cc1 ?
MT1-MMP act inh: 1; HIV Env fusion: -9; Yeast UUG start: -39; MT1-MMP act inh RFP: 3

How did COc1cc(CNS(=O)(=O)c2ccc3c(c2)CC(C)N3C(=O)C2CCC2)cc(OC)c1OC (stereo not given) do in these assays?
Rce1 inh: inactive; PABP polyA inh: 0; MT1-MMP act inh: -7; eIF4H inh: -4; HIV Env fusion: 57*; Yeast UUG start: -6; MT1-MMP act inh RFP: -25

All compounds of this part, repeating the preview:
Results for CCOc1ccc(OCCCC(=O)ON=C(N)c2ccccc2Cl)cc1 ?
MT1-MMP act inh: 1; HIV Env fusion: -9; Yeast UUG start: -39; MT1-MMP act inh RFP: 3

How did COc1cc(CNS(=O)(=O)c2ccc3c(c2)CC(C)N3C(=O)C2CCC2)cc(OC)c1OC (stereo not given) do in these assays?
Rce1 inh: inactive; PABP polyA inh: 0; MT1-MMP act inh: -7; eIF4H inh: -4; HIV Env fusion: 57*; Yeast UUG start: -6; MT1-MMP act inh RFP: -25

What do the screens show for `CN(C)S(=O)(=O)N1CCN(S(=O)(=O)c2ccccc2)CC1`?
PABP polyA inh: 9; MT1-MMP act inh: 7; eIF4H inh: 1; HIV Env fusion: -69; Yeast UUG start: -11; MT1-MMP act inh RFP: 4

What do the screens show for `CCCC(O)(CCN1CCOCC1)c1ccc(Cl)cc1` (stereo not given)?
Rce1 inh: inactive; CSC inhib: -15; PABP polyA inh: -5; MT1-MMP act inh: 0; eIF4H inh: 1; HIV Env fusion: -7; Yeast UUG start: -10; MT1-MMP act inh RFP: 3

What do the screens show for `Cc1[nH]c2ccc(C(=O)NCCN3CCCCCC3)cc2c1C`?
Rce1 inh: inactive; PABP polyA inh: 9; MT1-MMP act inh: -3; eIF4H inh: 1; HIV Env fusion: 2; Yeast UUG start: -9; MT1-MMP act inh RFP: 4

How did Nc1ccn([C@@H]2O[C@H](COS(=O)(=O)O)[C@@H](O)[C@H]2O)c(=O)n1 do in these assays?
CSC inhib: 10; MT1-MMP act inh: 1; HIV Env fusion: -17; Yeast UUG start: -2; MT1-MMP act inh RFP: 1

What do the screens show for `Cc1cc(C)nc(NS(=O)(=O)c2ccc(N3C(=O)c4ccccc4C3=O)cc2)n1`?
Rce1 inh: inactive; CSC inhib: -6; PABP polyA inh: -3; MT1-MMP act inh: 0; eIF4H inh: -12; HIV Env fusion: -11; Yeast UUG start: -17; MT1-MMP act inh RFP: 2

How did O=C(c1ccc(Cl)cc1)c1c[nH]c(C(=O)NNc2cccc(Cl)n2)c1 do in these assays?
Rce1 inh: inactive; CSC inhib: -4; PABP polyA inh: -1; MT1-MMP act inh: -3; eIF4H inh: -4; HIV Env fusion: 15; MT1-MMP act inh RFP: -5

Results for Cc1nc(-c2ccccc2)nc2[nH]c(-c3ccccc3)cc(=O)c12 ?
Rce1 inh: inactive; CSC inhib: 22; PABP polyA inh: 2; MT1-MMP act inh: 7; eIF4H inh: -2; HIV Env fusion: -61; Yeast UUG start: -6; MT1-MMP act inh RFP: -9

What do the screens show for `C/C(=N\NC(=O)c1cccc(S(=O)(=O)N2CCCC2)c1)c1cccs1`?
Rce1 inh: inactive; CSC inhib: 1; PABP polyA inh: -8; MT1-MMP act inh: 1; eIF4H inh: -2; HIV Env fusion: -1; MT1-MMP act inh RFP: 0

Results for O=C(N1CCN(c2ccccc2F)CC1)C1(c2cccs2)CCOCC1 ?
Rce1 inh: inactive; CSC inhib: -7; PABP polyA inh: -4; MT1-MMP act inh: -1; eIF4H inh: -2; HIV Env fusion: 29; MT1-MMP act inh RFP: -4

What do the screens show for `O=C(COn1nnc2ccccc21)NCC1CCCCC1`?
Rce1 inh: inactive; CSC inhib: -3; PABP polyA inh: -2; MT1-MMP act inh: 8; eIF4H inh: -9; HIV Env fusion: -35; Yeast UUG start: -1; MT1-MMP act inh RFP: 3

How did CCC(CC)c1nnc(NC(=O)C2CSC3(C)CCC(=O)N23)s1 (stereo not given) do in these assays?
Rce1 inh: inactive; CSC inhib: -17; MT1-MMP act inh: -2; HIV Env fusion: 0; Yeast UUG start: 2; MT1-MMP act inh RFP: 0

What do the screens show for `CCOC(=O)c1ccc(-c2ccc(/C=N/NC(=O)c3cncc(Br)c3)o2)cc1`?
Rce1 inh: inactive; CSC inhib: 4; PABP polyA inh: -1; MT1-MMP act inh: 3; eIF4H inh: 2; HIV Env fusion: -35; Yeast UUG start: -2; MT1-MMP act inh RFP: -2

What do the screens show for `O=C(CN1C(=O)C2C3C=CC(C3)C2C1=O)Nc1ccc2nccnc2c1` (stereo not given)?
Rce1 inh: inactive; CSC inhib: -4; PABP polyA inh: 5; MT1-MMP act inh: -3; eIF4H inh: 0; HIV Env fusion: -2; Yeast UUG start: 0; MT1-MMP act inh RFP: 4

Results for CC(C)CCNc1nc2ccccc2nc1NS(=O)(=O)c1cccs1 ?
Rce1 inh: inactive; CSC inhib: 23; PABP polyA inh: -7; MT1-MMP act inh: 1; eIF4H inh: 2; HIV Env fusion: -3; Yeast UUG start: -18; MT1-MMP act inh RFP: -5

How did O=C(OCC1OC(n2ncc(=O)[nH]c2=O)C(OC(=O)c2ccccc2)C1OC(=O)c1ccccc1)c1ccccc1 (stereo not given) do in these assays?
CSC inhib: -8; PABP polyA inh: -5; MT1-MMP act inh: -5; eIF4H inh: 3; Yeast UUG start: 0; MT1-MMP act inh RFP: 0

Results for CNC(=O)COC(=O)c1ccc(OCC(=O)Nc2ccccc2OC)c(OC)c1 ?
Rce1 inh: inactive; CSC inhib: 1; PABP polyA inh: 2; MT1-MMP act inh: 2; eIF4H inh: -9; HIV Env fusion: 12; MT1-MMP act inh RFP: 7

How did CC(C)CN(C(=O)CCNC(=O)c1ccc([N+](=O)[O-])cc1)C1CCS(=O)(=O)C1 (stereo not given) do in these assays?
CSC inhib: -13; MT1-MMP act inh: 1; HIV Env fusion: -3; Yeast UUG start: -7; MT1-MMP act inh RFP: 3

How did C/C(=C\c1ccccc1)C(=O)NC1CCSC1=O (stereo not given) do in these assays?
Rce1 inh: inactive; CSC inhib: 6; PABP polyA inh: -11; MT1-MMP act inh: 5; eIF4H inh: -3; HIV Env fusion: -17; Yeast UUG start: 0; MT1-MMP act inh RFP: 2

Results for Cn1nc(C(F)(F)F)c(/C=N/OC(=O)c2ccccc2Cl)c1SCc1ccccc1Cl ?
Rce1 inh: inactive; CSC inhib: 50; PABP polyA inh: 3; MT1-MMP act inh: -10; eIF4H inh: 9; HIV Env fusion: 5; Yeast UUG start: -17; MT1-MMP act inh RFP: -18

What do the screens show for `CSc1ccc(C(=O)NCC(=O)O)cc1[N+](=O)[O-]`?
Rce1 inh: inactive; CSC inhib: -2; PABP polyA inh: 2; MT1-MMP act inh: 3; eIF4H inh: -3; HIV Env fusion: -2; Yeast UUG start: -20; MT1-MMP act inh RFP: 4

How did O=C(Oc1ccc(C(=S)N2CCCCC2)cc1)c1ccccc1 do in these assays?
Rce1 inh: inactive; CSC inhib: -9; PABP polyA inh: -1; MT1-MMP act inh: -4; eIF4H inh: 6; HIV Env fusion: -7; MT1-MMP act inh RFP: -4

How did O=[N+]([O-])c1ccc(Sc2n[nH]c(-c3ccccc3)n2)nc1 do in these assays?
Rce1 inh: inactive; CSC inhib: 6; PABP polyA inh: -2; MT1-MMP act inh: -3; eIF4H inh: -7; HIV Env fusion: -36; Yeast UUG start: -16; MT1-MMP act inh RFP: -7

What do the screens show for `OCC1(CCOc2ccccc2)CCN(Cc2ccccc2OC(F)F)CC1`?
Rce1 inh: inactive; CSC inhib: 7; PABP polyA inh: -10; MT1-MMP act inh: 5; eIF4H inh: -14; HIV Env fusion: 11; Yeast UUG start: -28; MT1-MMP act inh RFP: 2

Results for COc1cccc(CNC(=O)CCS(=O)(=O)c2cccc3nsnc23)c1 ?
Rce1 inh: inactive; CSC inhib: -13; PABP polyA inh: 1; MT1-MMP act inh: 1; eIF4H inh: -13; HIV Env fusion: -1; MT1-MMP act inh RFP: 2

Results for CCOC(=O)C(=Cc1ccc(OCc2ccc([N+](=O)[O-])cc2)c(OC)c1)C(=O)OCC ?
Rce1 inh: inactive; CSC inhib: 116*; PABP polyA inh: -20; MT1-MMP act inh: -22; eIF4H inh: -4; MT1-MMP act inh RFP: -32

Results for CN(CCOC(=O)c1cccc(F)c1)Cc1ccccc1 ?
Rce1 inh: inactive; CSC inhib: -9; PABP polyA inh: -6; MT1-MMP act inh: -2; eIF4H inh: 1; HIV Env fusion: -24; MT1-MMP act inh RFP: -2

What do the screens show for `COc1ccc(-c2cc3ccc(OCc4nn[nH]n4)cc3oc2=O)cc1`?
Rce1 inh: inactive; CSC inhib: -4; PABP polyA inh: 5; MT1-MMP act inh: 5; eIF4H inh: 0; HIV Env fusion: -15; Yeast UUG start: -38; MT1-MMP act inh RFP: 4

Results for O=C(c1ccccc1F)N1CCN(c2ccc([N+](=O)[O-])c(NCc3cccnc3)c2)CC1 ?
Rce1 inh: inactive; CSC inhib: 13; PABP polyA inh: -1; MT1-MMP act inh: 0; eIF4H inh: -9; HIV Env fusion: 20; Yeast UUG start: -21; MT1-MMP act inh RFP: -5

Results for CCOC(=O)Cn1c(=O)oc2cc(S(=O)(=O)NCCC(C)C)ccc21 ?
Rce1 inh: inactive; CSC inhib: -4; PABP polyA inh: 13; MT1-MMP act inh: 2; eIF4H inh: -6; HIV Env fusion: 19; Yeast UUG start: 2; MT1-MMP act inh RFP: 0

Results for CCOC(=O)C1CCN(C(=O)c2cc3cc4cc(OC)ccc4nc3o2)CC1 ?
Rce1 inh: inactive; CSC inhib: -8; PABP polyA inh: 5; MT1-MMP act inh: 2; eIF4H inh: -1; Yeast UUG start: -7; MT1-MMP act inh RFP: 3

How did CCc1cc2c(-c3ccccc3)cc(=O)oc2cc1OC(C)C(C)=O (stereo not given) do in these assays?
Rce1 inh: inactive; CSC inhib: -5; PABP polyA inh: 5; MT1-MMP act inh: 3; eIF4H inh: -10; HIV Env fusion: 12; Yeast UUG start: -10; MT1-MMP act inh RFP: -6

What do the screens show for `COc1cc2c(cc1NC(=O)C(C)Sc1cccc[n+]1[O-])oc1ccccc12` (stereo not given)?
Rce1 inh: inactive; CSC inhib: -14; PABP polyA inh: 3; MT1-MMP act inh: 1; eIF4H inh: 1; HIV Env fusion: 8; MT1-MMP act inh RFP: 1

Results for C=C1c2ccccc2S(=O)(=O)N(Cc2ccccc2)C1COCc1ccccc1 (stereo not given) ?
Rce1 inh: inactive; CSC inhib: 33; PABP polyA inh: -6; MT1-MMP act inh: -3; eIF4H inh: -18; HIV Env fusion: -15; Yeast UUG start: -11; MT1-MMP act inh RFP: -3

Results for COc1nn(CC(=O)N2N=C(C)CC2(O)C(F)(F)F)cc1[N+](=O)[O-] (stereo not given) ?
Rce1 inh: inactive; CSC inhib: -23; PABP polyA inh: -8; MT1-MMP act inh: 6; eIF4H inh: 0; HIV Env fusion: -10; Yeast UUG start: -19; MT1-MMP act inh RFP: 6

Results for O=C(NCCN1CCCC1)C1CC(=O)N(C2CCCCC2)C1 (stereo not given) ?
Rce1 inh: inactive; CSC inhib: 8; PABP polyA inh: -2; MT1-MMP act inh: 2; eIF4H inh: -7; MT1-MMP act inh RFP: 3

What do the screens show for `CCCc1nnc(SCC(=O)N2CCCC(C)C2)n1CCCOC` (stereo not given)?
Rce1 inh: inactive; CSC inhib: 7; PABP polyA inh: 2; MT1-MMP act inh: 7; eIF4H inh: -4; Yeast UUG start: -17; MT1-MMP act inh RFP: 2
